Bioassay records: PubChem BioAssay, PCMD
Calb biofilm kill: clotrimazole potentiators killing C. albicans biofilm, primary screen, 4-compound mixtures; C. albicans biofilm persisters + clotrimazole, fluorescence viability; primary screen in compound mixtures of four per well; inhibition, % at 7.6 µM; 0.02% of 120,000 active;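 active = inhibition above 30.3% in the primary screen of four-compound pools, then above 30% when the compound was retested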;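 also: compounds exposed to preformed 24 h biofilms for 48 h; the number belongs to the whole pool; some results filed as inactive read as strong as hits; inactives centre near 12; 0% = biofilm with clotrimazole alone and 100% = kill control; retested singly at about 60 µM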
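System: C. albicans CAF4-2 wild-type biofilms; Medium: RPMI/MOPS medium, pH 7.0; Reagent: Clotrimazole, 50 µg/mL; Times: biofilm formation 24 h, compound exposure 48 h, 37 °C; Detection: 2-h Alamar Blue fluorescence, 535/590 nm excitation/emission; Evaluation: percent inhibition of biofilm viability.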
The depositor's hits bear a star.

molecule	Calb biofilm kill
COc1ccccc1NC(=O)c1ccc(NC(=O)COC(=O)C2CCCO2)cc1 (centres undefined)	15
CN(C)c1cc(-c2ccc(Cl)cc2)oc(=O)c1Cl	9
COc1ccccc1-n1cnc2c(c1=O)c1nc3ccccc3nc1n2-c1ccc(C)c(C)c1	2
Cc1ccc(Nc2ncc(C(=O)NCCCN3CCN(C)CC3)c3ccccc23)cc1Cl	18
N/C(=N\NC(=O)c1cccc(F)c1)c1cc2ccccc2oc1=O	3
Cc1ncc(CN2CCN(CCC(C)C)C(CCO)C2)s1 (centres undefined)	29
Cc1cc(C)n(C(=O)c2sc3cc(F)ccc3c2Cl)n1	4
CCCc1cc(-c2nc(-c3ccc(C)cc3)cs2)ccn1	16
COc1ccc(OC)c(/C=N\NC(=O)CC(=O)NCCc2ccccc2)c1	9
COc1ccc2c(c1)Cc1sc(NC(=O)c3cccnc3)nc1-2	5
CCC(=O)Nc1ccc(N2CCOCC2)c(S(=O)(=O)Nc2ccc(OC)cc2)c1	-7
O=C(/C=C/c1ccc2c(c1)OCCCO2)c1ccc2ccccc2c1O	12
COc1ccc(NC(=O)CN(c2ccccc2)S(=O)(=O)c2ccccc2)c(OC)c1	23
COc1ccc(N2C(=O)C3C(C2=O)C3(c2ccccc2)c2ccccc2)cc1 (centres undefined)	13
O=C1CN(C(=O)COC(=O)CCCOc2ccccc2)c2ccccc2N1	15
COc1cc(C(=O)OCC(=O)Nc2sccc2C(N)=O)cc(OC)c1OC	4
O=C(Cc1ccccc1F)Nc1nc2ccccc2[nH]1	-11
COc1ccc(CC(=O)Nc2cccc3ncccc23)cc1OC	17
Cc1cc(O)ccc1NC1=CC(=O)CC(C)(C)C1	12
CC1CCCC(C)N1/N=C/C=C/c1ccccc1[N+](=O)[O-] (centres undefined)	9
COC(=O)c1sc(NC(=O)C(C)c2ccccc2)nc1C (centres undefined)	11
C#CCOCCOCCOCCNc1nc(N2CCN(C(=O)C(Cc3cc4ccccc4[nH]3)n3cc(C(N)C(C)CC)nn3)CC2)nc(N2CCN(C(=O)C(Cc3cc4ccccc4[nH]3)n3cc(C(N)C(C)CC)nn3)CC2)n1 (centres undefined)	13
COc1ccc2cc(C(c3nnnn3C3CCCC3)N3CCOCC3)c3nnnn3c2c1 (centres undefined)	3
CCCCCOc1ccccc1C(=O)NCCCCCC(=O)O	30
CCOc1cc(CNCCO)ccc1OCC(=O)NC(C)(C)C	21
CCCCc1nc2ccc(S(=O)(=O)O)cc2[nH]1	17
O=C(CSc1nc(C2CCCCC2)nc2ccccc12)N1CCCC1	33
Cc1ccc(-n2nc(C)c(/C=N/NC(=O)c3cccs3)c2Cl)cc1	6
N#Cc1cccc(NC(=O)COC(=O)c2ccccc2C(=O)c2ccc(Cl)c([N+](=O)[O-])c2)c1	10
COc1ccc(CN2CN(S(=O)(=O)c3cccs3)c3nc4ccccc4nc32)cc1	7
CNC(=O)c1c(Br)cnn1-c1ccc(C)cc1	10
CC(Sc1nnc(-c2ccco2)o1)C(=O)NCCC1=CCCCC1 (centres undefined)	3
COc1cccc(/C=N/NC(=O)C(=O)N/N=C/c2cccc(OC)c2O)c1O	7
Cc1csc(C(=O)NN)c1N(C)C	21
CC(c1nccs1)N(C)c1nc2nonc2nc1NC1CC1 (centres undefined)	3
O=C(CCC(=O)c1ccc(F)cc1)Nc1cccnc1	20
CCOC(=O)C1(Cc2ccc(Cl)cc2)CCN(C(=O)CCc2cnccn2)CC1	-18
O=C(Nc1ccc(CN2CCS(=O)(=O)CC2)cc1)c1ccc(C(F)(F)F)cc1	13
COc1ccc(NC(=O)Nc2nnc(-c3cccs3)s2)cc1	25
O=C(NCc1ccccc1)C1CC(=O)N(c2ccc(OCC(=O)N3CCCC3)cc2)C1 (centres undefined)	21
COc1ccc(C2NC(=O)CS2)cc1 (centres undefined)	15
Cc1ccc(C(=O)NCc2nnc(SCC(=O)Nc3ccccc3)n2C)cc1	13
COc1ccc(COc2cc(-c3cccc(OC)c3)nc3ccc(NC(=O)c4cccnc4)cc23)cc1	8
c1ccn2cc(C34CC5CC(CC(C5)C3)C4)nc2c1	-1
CN(c1ccccc1)S(=O)(=O)c1cccc(NC(=O)Cc2c(F)cccc2Cl)c1	17
Cc1cccc(NC(=S)N2CCn3cccc3C2c2cccnc2)c1 (centres undefined)	16
N#Cc1c(-c2ccccc2F)cc(C2CC2)nc1SCC(=O)c1cccs1	17
C=CCNc1nc(N)c(C(=C(C#N)C#N)c2ccc(Br)cc2)s1	9
COc1cnc(-c2ccccc2)[nH]c1=O	20
CC(NCc1ccccc1)c1ccccc1O (centres undefined)	11
COc1ccc(CC(=O)OC(C)CN2CCCCC2)cc1 (centres undefined)	21
Oc1cc2c(cc1C(c1ccc(Br)cc1)N1CCCC1)OCO2 (centres undefined)	16
CC(C)(C)C(=O)OCc1nc(-c2ccc(F)cc2)cs1	3
O=C(COC(=O)c1cc[n+]([O-])cc1)NCCc1ccc(Cl)cc1Cl	-1
CCOc1ccc2[nH]c(=O)c(CN(CCN3CCCC3)C(=S)Nc3ccccc3OCC)cc2c1	9
Clc1ccc(-c2csc(N/N=C/c3ccco3)n2)cc1	1
COc1ccccc1NS(=O)(=O)c1ccc(O)c(C(=O)OCc2cccc([N+](=O)[O-])c2)c1	6
O=C(Nc1ccc(-c2nc3cccnc3s2)cc1)C1CCCO1 (centres undefined)	8
CCCCC(=O)NC(=S)NNC(=O)CCc1ccccc1	21
CC1=C(C(=O)OC(C)C)C(c2cncc(-c3ccc(F)cc3)c2)C(C#N)=C(N)O1 (centres undefined)	13

The list continues.
molecule	Calb biofilm kill
Cc1cc(C)cc(OCC(=O)Nc2ccc(CN3CCCCC3)cc2)c1	6
Cc1[nH]c(-c2ccccn2)nc(=S)c1Cl	11
CC(NC(=O)c1ccccc1Cl)c1nnc(SCC(=O)Nc2ccc(C(=O)O)cc2)n1C (centres undefined)	7
COc1ccc(CCN2C(=O)/C(=C\c3ccco3)SC2=S)cc1OC	7
O=C(NNc1nc(-c2ccc(Cl)cc2)cs1)c1ccco1	16
COc1cc(CC(=O)OCC(=O)N2CC(=O)Nc3ccccc32)cc(OC)c1OC	8
CCOC(=O)c1ccc(NC(=O)N2CCN(Cc3ccccc3)CC2)cc1	13
CCCn1ncc(CN2CCC(N3CCC(C(=O)N4CCOCC4)CC3)CC2)c1C	15
O=C1COc2ccc(S(=O)(=O)Nc3ccc4c(c3)OCO4)cc2N1	8
COc1cc(C2CC(=O)N(c3ccc(C)cc3)C(=O)C2)cc(OC)c1OC	-3
CCOC(=O)C(C(=O)OCC)C(Nc1ccccc1)c1ccccc1 (centres undefined)	19
CCN(CC)C(=O)CSc1nnc2sc3ccccc3n12	6
O=c1oc2ccc(Br)cc2cc1S(=O)(=O)c1ccc(F)cc1	12
N#CCCn1cc(/C=N/NC(N)=S)c(-c2ccccc2)n1	15
COc1ccc(CCNC(=O)C2CCC(=O)N2CCc2ccccc2)cc1OC (centres undefined)	10
COc1ccc(C(=O)N=C2CCC(C#N)=C3c4cc(OC)c(OC)cc4CCN23)cc1	19
O=C(NCc1cccnc1)C(=O)Nc1ccc2c(c1)OCO2	7
NC(=NCCc1ccc(Cl)cc1)NS(=O)(=O)c1ccc(F)cc1	12
COCCn1c(SCC(=O)Nc2ccccc2)nc2c(oc3ccccc32)c1=O	12
NCCSc1c(-c2ccccc2)[nH]c2ccccc12	13
CCc1ccc(N2C(=O)CC(NNc3nc4ccccc4s3)C2=O)cc1 (centres undefined)	12
NNC(=O)c1ccccc1OCc1ccccc1	19
C=CCn1c(SCC(=O)N2c3ccccc3Sc3ccccc32)nnc1-c1ccco1	20
COc1ccc(/C=N/NC(=O)c2cccc(C(F)(F)F)c2)cc1	11
COc1cc(CN2CCCC(CO)(Cc3ccccc3C)C2)cc2c1OCO2 (centres undefined)	13
O=C1Nc2ccccc2N(O)N1c1ccc(Cl)cc1	10
COc1ccc2c(c1)CC/C2=N\OC(=O)c1ccccc1C	3
N#CC(C#N)=C1C=CC=CN1/C(=C\c1ccco1)C(=O)c1ccccc1	13
COc1ccc(C(=O)Oc2cc(C)[nH]c(=O)c2[N+](=O)[O-])cc1	5
COC(=O)N=Nc1c(O)[nH]c2ccc(Br)cc12	14
Cc1cc(C)nc(SCc2ccc(C(=O)NNC(=O)Nc3cccc(Cl)c3)cc2)n1	12
COc1ccc(OC)c(/C=N/Nc2nncn2/N=C/c2cc(OC)ccc2OC)c1	18
Cc1ccc(-n2c(C)nc3ncnc(-c4ccccc4)c32)cc1	9
O=C(NC(c1ccccc1)C(Cl)Cl)c1ccccc1 (centres undefined)	18
CC(=O)N/C(=C\c1ccccc1)C(=O)NCc1ccc2c(c1)OCO2	17
O=C(O)COc1ccccc1/C=C1\SC(=O)N(Cc2ccc(F)cc2)C1=O	22
COc1ccc(OC)c(NC(=O)c2ccc3nc(-c4ccccc4)c(-c4ccccc4)nc3c2)c1	5
O=C(CNC(=O)c1ccc(F)cc1)N/N=C/c1cn[nH]c1-c1ccccc1	8
COc1ccc(/C=C(\C#N)c2n[nH]c(Cn3cncn3)n2)cc1	7
Cc1[nH]n(-c2ccccc2)c(=O)c1C=Nc1cccc2cccnc12	11
O=C(C(=C1NCCN1)n1cncn1)c1ccccc1	22
COc1ccc(CCN2C(=O)CC(N3CCN(S(=O)(=O)c4ccccc4)CC3)C2=O)cc1OC (centres undefined)	4
CCOc1cccc(C(=O)NC(=S)NCc2cccnc2)c1	15
Cc1ccc(Nc2nnc(SCC(=O)Nc3ncc(C(F)(F)F)cc3Cl)s2)cc1	31
O=C(CCC(=O)c1cccs1)NCc1cccnc1	8
Cc1cccc2c(N=Nc3ccc(S(=O)(=O)Nc4cccc(Cl)c4)cc3[N+](=O)[O-])c(O)[nH]c12	5
Cc1cccc(OCC(=O)Nc2cccc(C(=O)NCC(C)C)c2)c1	13
Cc1cccc(C)c1NC(=O)Cn1nnnc1N	13
O=C(NCc1cccs1)c1ccc([N+](=O)[O-])cc1Cl	17
CCC1S/C(=N/N=C/c2ccco2)N(c2ccc(F)cc2)C1=O (centres undefined)	12
Cc1ccc(NC(=O)CSc2nnc(Cc3ccccc3)o2)cc1	19
Cc1ccn(CCC(=O)N2CCCC(CCC(=O)NCc3ccc(F)c(F)c3)C2)n1 (centres undefined)	2
CCN(CC)S(=O)(=O)c1ccc(C)c(NC(=O)CN2CCN(C)CC2)c1	15
Cc1ccc(C(=O)N/N=C\c2ccc([N+](=O)[O-])s2)cn1	9
Cc1ccc(/C=C/C(=O)c2ccc(C)cc2)cc1	16
CCOc1ccc(-c2cc(C(=O)O)c3ccccc3n2)c(OCC)c1	17
Cc1nc(-c2ccccc2)sc1-c1ccnn1C	9
CCOC(=O)N1CCC(N(CCN(C)C)C(=S)Nc2cc(Cl)cc(Cl)c2)CC1	10
N/C(=N\OC(=O)c1ccccc1Cl)c1cccnc1	18
O=C(O)COc1ccccc1/C=N/Nc1ccc(S(=O)(=O)N2CCOCC2)cc1[N+](=O)[O-]	12

Going on with the list:
molecule	Calb biofilm kill
Cn1c(NC(=O)c2ccc(S(=O)(=O)N3CCOCC3)cc2)cc(=O)n(C)c1=O	16
CNc1nc(SC)nc2ccccc12	0
CCOC(=O)C1(C)NC(c2ccco2)C2C(=O)N(CC)C(=O)C21 (centres undefined)	14
Cc1c(Cc2ccc3c(c2)OCO3)sc(NC(=O)c2ccccc2)c1C(N)=O	1
Cc1cc(Oc2ccc(=O)[nH]n2)nc(Cl)n1	18
CCO[C@H]1OC(C(=O)NCc2nc3ccccc3[nH]2)=C[C@@H](c2csc3ccccc23)[C@@H]1CCCO	21
CN1C(C(=O)NCc2ccc(OC(F)(F)F)cc2)CC2Cn3c(nc4ccccc43)C21 (centres undefined)	16
COc1ccc(Nc2nnc(-c3ccccc3)c3ccccc23)cc1C(=O)N1CCCCC1	7
OC(CCN1CCCC1)(c1ccccc1)C1CCCCC1 (centres undefined)	15
O=C(COC(=O)c1ccc2[nH]c3c(c2c1)CCCC3)Nc1ccccc1Cl	3
COCCCNc1c2c(nc3nnnn13)CCCC2	12
Cc1cc(N2CCN(C)CC2)nc2ccc(NC(=S)N3CCOCC3)cc12	24

A portion of the library; rates above refer to the full screens.
